Screening results (PubChem)
KCNQ2 enhance = potentiators of rat KCNQ2 potassium channel | 310,000 compounds, 0.54% hits | B-score at 10 µM | CHO-K1 KCNQ2, FluxOR thallium flux fluorescence; active compounds read high;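 active = fluorescence ratio B-score at least 3 SD of library B-scores, with initial fluorescence B-score within 3 SD, cut at about 5.3 in these data; same plate scores as AID 2156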;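 also: B-score of peak minus minimum over baseline fluorescence ratio after K+ and Tl+ stimulus; positive B-score means potentiation of KCNQ2 with more thallium influx and brighter signal; only the inactives scoring about 0 or higher are listed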
Target sequence (O88943 whole entry, looked up): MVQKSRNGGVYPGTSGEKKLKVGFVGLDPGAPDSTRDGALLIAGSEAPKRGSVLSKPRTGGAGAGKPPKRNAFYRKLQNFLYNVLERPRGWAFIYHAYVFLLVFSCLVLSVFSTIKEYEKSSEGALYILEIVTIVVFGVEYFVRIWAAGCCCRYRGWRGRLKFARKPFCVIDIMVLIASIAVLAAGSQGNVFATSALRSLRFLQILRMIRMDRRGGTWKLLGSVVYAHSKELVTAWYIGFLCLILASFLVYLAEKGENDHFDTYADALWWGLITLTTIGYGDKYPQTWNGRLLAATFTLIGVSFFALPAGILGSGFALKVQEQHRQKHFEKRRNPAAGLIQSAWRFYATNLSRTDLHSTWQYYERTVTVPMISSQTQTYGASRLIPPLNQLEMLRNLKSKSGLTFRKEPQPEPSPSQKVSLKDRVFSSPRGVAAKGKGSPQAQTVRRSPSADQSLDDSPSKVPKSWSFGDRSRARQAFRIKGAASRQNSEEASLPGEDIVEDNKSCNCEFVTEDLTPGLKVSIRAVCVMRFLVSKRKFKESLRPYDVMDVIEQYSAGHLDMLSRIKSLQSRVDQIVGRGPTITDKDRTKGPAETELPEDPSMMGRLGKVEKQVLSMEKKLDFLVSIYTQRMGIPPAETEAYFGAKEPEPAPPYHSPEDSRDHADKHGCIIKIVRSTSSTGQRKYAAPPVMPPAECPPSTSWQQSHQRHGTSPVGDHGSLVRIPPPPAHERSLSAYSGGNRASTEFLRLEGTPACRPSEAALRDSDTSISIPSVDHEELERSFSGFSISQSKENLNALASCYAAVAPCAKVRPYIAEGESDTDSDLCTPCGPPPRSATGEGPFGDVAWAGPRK
KCNQ2 enhance baseline = second read-out of KCNQ2 enhance, no call of its own (marks repeat the call); B-score; compound at 10 µM; measured here: initial fluorescence intensity artifact check;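 brightness before thallium and not channel activity; 0 = typical well and far values either way flag optical interference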
* = called active by the depositor.

SMILES,KCNQ2 enhance,KCNQ2 enhance baseline
COc1cc(NS(=O)(=O)c2ccc(NC(=S)NC(=O)c3sc4cc(F)ccc4c3Cl)cc2)nc(OC)n1,4.64,-0.34
COCCOC(=O)C1=C(C)NC(=O)NC1c1cn(-c2ccccc2)nc1-c1cccs1 (configuration not stated),1.26,-0.84
Cc1cccc(C(=O)N2CCCN(C(=O)c3cccc(C)c3)CC2)c1,0.67,-0.56
S=C(Nc1cccnc1)N1CCc2ccccc21,1.37,-1.57
Cc1cccc(OCc2nnc(SCC(=O)N3CCCC3)n2C)c1,0.42,0.42
CN1CCN(c2ccc(NC(=O)c3cccs3)cc2)CC1,0.15,0.04
O=C(CSc1nnc(-c2cccs2)n1-c1ccccc1)Nc1ccccc1,0.83,0
CCCc1cc(=O)oc2cc(O[C@@H]3O[C@H](CO)[C@@H](O)[C@H](O)[C@H]3O)ccc12,1.33,-0.97
O=C(CCc1ccccc1)N=C1SC2CS(=O)(=O)CC2N1c1cccc(F)c1 (configuration not stated),1.27,0.31
Oc1ccccc1C1=NOC(O)(C(F)F)C1 (configuration not stated),0.2,0.01
O=S(=O)(NCc1ccccc1)c1cnc[nH]1,1.37,-0.39
Cc1ccc(CSc2ncnc3c2cnn3-c2ccc(C)cc2)cc1,1.09,1.16
CCn1c(SCC(=O)Nc2ccc(OC)c(OC)c2)nc2c(c1=O)SCC2,0.87,-1.11
O=C1CC(c2ccco2)Cc2c1cnn2-c1nc2ccccc2s1 (configuration not stated),0.91,-0.12
COc1ccc(-n2c(SCC(=O)C(C)(C)C)nc3ccsc3c2=O)cc1,0.5,-0.22
Nc1c(Cl)ncnc1NCCO,0.01,-1.45
CC1Cc2cccc3c(O)c(C(=O)c4nn[nH]n4)c(=O)n1c23 (configuration not stated),1.27,-0.25
CN(C(=O)COC(=O)c1cc2c(s1)CCCCC2)c1ccccc1,0.22,-0.36
Cc1[nH]n2c(=O)c3c(nc2c1-c1ccc(Cl)cc1)CCC3,0.57,-2.66
O=C(COc1ccc2c(c1)OCO2)Nc1cccc(F)c1,0.39,0.08
COc1ccc(Cl)cc1C(=O)OCC(=O)N(C)CC(=O)Nc1ccc(F)cc1,2.67,0.45
Cn1c(=O)[nH]c(=O)c2c1nc1n2CCN1Cc1ccccc1,1.47,0.14
COc1nc(N)nc2nc[nH]c12,0.5,1.56
CC(C)=CCc1c(O)cc2c(=O)c3ccc(O)cc3oc2c1O,0.78,-0.26
O=C(O)c1cc2ccccc2c(=O)s1,0.41,-1.5

Continuation:
SMILES,KCNQ2 enhance,KCNQ2 enhance baseline
CCOc1ccccc1NC(=O)CNC(=O)Cc1ccccc1,0.38,-0.05
CCCc1nn(C)c(C(=O)Nc2cccc(Cl)c2)c1Cl,0.33,-1.57
Nc1ccc(/C=C/c2ccc3ncccc3c2)cc1,0.33,-0.15
CCC(C)C(NC(=O)c1ccccc1NC(=O)c1ccco1)C(=O)O (configuration not stated),0.94,-0.09
Cc1ccc(-c2nc3ncccn3c2NC(=O)C2CC2)cc1,0.51,0.03
CC(OC(=O)c1oc2ccccc2c1CSC1CCCCC1)C(=O)NC(N)=O (configuration not stated),0.43,0.21
CC(NCC(O)COC1CCC(C(C)(C)C)CC1)c1ccccc1 (configuration not stated),0.44,-0.88
O=C(O)CCC(=O)Nc1ccc(C(=O)OCC(=O)c2ccc(Cl)cc2Cl)cc1,1.28,-1.34
CC(C)Nc1nc(-c2ccncc2)nc(-c2ccccc2)c1C#N,1.8,0.13
O=C(NCCN1CCOCC1)c1cc(-c2ccc(Cl)cc2)on1,0.08,-0.03
CCN1CCN(c2ncc(C(=O)N3CCCc4ccccc43)c3ccccc23)CC1,1.99,-0.14
O=C(Nc1cc(Cl)ccc1-n1cncn1)c1ccco1,1.21,0.93
CN(C)CCN(C(=O)c1cccs1)c1nc2cc3c(cc2s1)OCCO3,0.65,1.55
COc1ccc(N2CCN(C(=O)COCC(=O)O)CC2)cc1,0.27,0.89
O=C(CSc1ccc2nnc(CCNC(=O)c3ccc(F)cc3)n2n1)NCc1ccco1,0.28,0.47
O=C(COc1c(Cl)cccc1Cl)NN1C(=O)CSC1=S,0.28,1.53
COc1ccc(NC(C)C(=O)N/N=C/c2cc(Br)ccc2OC)cc1 (configuration not stated),0.33,0.34
Fc1ccccc1CNC(=S)NC1CCCCC1,1.3,1.4
Nc1nonc1-n1nnc(C(=O)N/N=C/C2CC=CCC2)c1CSc1ccccc1 (configuration not stated),0.52,1.6
Cn1c(=O)c2c(ncn2CC(=O)OCC(=O)Nc2ccc(Cl)cc2)n(C)c1=O,0.3,-0.65
CC(C)(C)c1ccc(NC(=O)N2CCCN(c3ccc([N+](=O)[O-])cn3)CC2)cc1,0.51,0.22
CCOc1cc(/C=C2/SC(=S)NC2=O)ccc1OC(=O)c1ccco1,0.68,-0.27
Cc1c(C(=O)N/N=C/c2ccccc2)[nH]c2ccc(Cl)cc12,2.95,-0.43
CCc1ccccc1S(=O)(=O)Cc1ccc(C(=O)NC2CCCC2)o1,0.08,0.09
CCOC(=O)c1cc2c(=O)c3ccccc3oc2nc1C,0.29,-2.22

Next records.
SMILES,KCNQ2 enhance,KCNQ2 enhance baseline
CCCc1ncc(C(O)c2cccc(OC)c2OC)n1C (configuration not stated),0.05,0.84
O=C(Cc1ccccc1)Nc1ccnn1C1CCN(Cc2ccc(CO)o2)CC1,0.15,-0.4
O=C(OCc1ccc(Br)cc1)c1ccncc1,0.01,1.18
Cc1cccc(OCC(=O)NCCCNC(=O)c2ccco2)c1,2.08,-0.59
Cc1cc(C)cc(NC(=S)NCc2ccc(S(N)(=O)=O)cc2)c1,0.49,-1.26
COCc1cc(C)nc(SCC(=O)Nc2ccc(N3CCOCC3)cc2)c1C#N,0.67,0.63
COc1ccc(-c2cc(C(=O)N/N=C(\C)c3cccnc3)c3ccccc3n2)cc1,0.04,0.49
Cc1coc2cc3oc(=O)c(CCC(=O)N4C[C@H]5C[C@@H](C4)c4cccc(=O)n4C5)c(C)c3cc12,0.78,-0.33
CC(C)(C)c1ccc(C(=O)OC/C(O)=C(\C#N)c2nc3ccccc3s2)cc1,0.64,-0.11
C=CCN(C(=O)c1csnn1)C(C(=O)NC1CCCC1)c1ccc(F)cc1 (configuration not stated),0.23,-1.47
Oc1ccccc1/C=N/Nc1ccccc1,1,1.25
CC(C)C(NC(=O)CN1C(=O)c2ccccc2S1(=O)=O)C(C)C,2.04,0.52
NC(=S)Cc1ccc(Cl)cc1Cl,1.47,-1.22
c1ccc(-c2nc(NC3CC3)nc(-n3ccnc3)n2)cc1,1.38,-0.05
CCC(C)NC(=O)c1ccccc1NC(=O)c1ccccc1N(C)S(C)(=O)=O (configuration not stated),1.06,-0.12
CCc1ccc2oc(C(=O)NCc3ccc(S(N)(=O)=O)cc3)c(C)c2c1,1.43,0.05
O=C1C(c2cc(=O)c3ccccc3[nH]2)=C(O)c2ccccc21,0.64,0.86
Cc1ccc2c(CN3CCN(CCO)CC3)cc(=O)oc2c1,0.67,-1.07
C=CCN1C(=O)SC(Cc2cccc(OC)c2O)C1=O (configuration not stated),1.19,-0.2
COC(=O)COc1ccc(S(=O)(=O)Nc2ccc3c(c2)OCCO3)cc1C,1,0.03
Cc1csc(NC(=O)CSc2nncn2C)n1,0.27,1.7
CCNc1nc(Cl)nc(NNC(=O)C(C)Oc2ccccc2)n1 (configuration not stated),0.15,-0.49
CC(Sc1nc2ccccc2s1)C(=O)c1c(N)n(C)c(=O)n(C)c1=O (configuration not stated),1.58,-1.88
O=C(CN1C(=O)c2cccc3cccc1c23)Nc1ccc(S(=O)(=O)Nc2nccs2)cc1,1.92,-0.85
Cc1ccc(S(=O)(=O)N2CCN(C(=O)COC(=O)C3CCC3)CC2)c(C)c1,0.37,2.18

Individual results from the results shown:
Under KCNQ2 enhance, CC(Sc1nc2ccccc2s1)C(=O)c1c(N)n(C)c(=O)n(C)c1=O (configuration not stated) is listed with 1.58
Under KCNQ2 enhance baseline, CCNc1nc(Cl)nc(NNC(=O)C(C)Oc2ccccc2)n1 (configuration not stated) is listed with -0.49
Under KCNQ2 enhance, c1ccc(-c2nc(NC3CC3)nc(-n3ccnc3)n2)cc1 is listed with 1.38

Next results
Second line of a record – KCNQ2 enhance, KCNQ2 enhance baseline
Cn1c(SCC(=O)Nc2ccc3c(c2)OCCO3)nnc1C1CC1
→ 0.6, 0.12
CN(c1ccc(C(=O)N2CCOCC2)cc1)S(=O)(=O)c1cccs1
→ 0.02, -0.34
COc1ccc(C(C)=O)cc1CSCCC#N
→ 0.34, 0.43
CCOC(=O)N1CCN(C(=O)C2CCC(=O)N(CCCN3CCCC3=O)C2)CC1 (configuration not stated)
→ 1.72, -0.86
CCOc1ccc(OCCC(=O)OCC(=O)N2CCN(S(=O)(=O)c3ccc(Cl)cc3)CC2)cc1
→ 1.68, -0.44
Cc1oc(-c2ccccc2Cl)nc1Cn1cccc1C1=NC(c2ccccc2)CO1 (configuration not stated)
→ 0.4, 1.5
COC(=O)CC(=O)N1CCN(c2ccc(Cl)c(Cl)c2)CC1
→ 1.75, -0.69
O=C(O)CNc1nc(-c2ccccc2)nc2ccccc12
→ 1.53, 0.63
CC(=O)Nc1ccc(NC(=O)c2sc(-c3ccccc3)nc2C)cc1
→ 0.89, 0.85
CCCNC(=O)c1ccc(OC)cc1OC
→ 1.78, -1.24
CS(=O)(=O)c1ccc(Cl)c(NC(=O)COC(=O)CNC(=O)c2sc3ccccc3c2Cl)c1
→ 2.26, -0.36
Cn1cc(C(=O)NCN2CCCCC2)c2ccccc21
→ 1.61, -1.07
CCOC(=O)c1cn(Cc2cccc(Cl)c2)nn1
→ 1.07, 0.06
COc1cccc(Nc2ncccc2C(=O)O)c1
→ 0.03, 0.05
Oc1ccc(Cl)cc1CNc1cccc2cccnc12
→ 0.02, -0.24
CCOCC(=O)Nc1ccc(S(=O)(=O)N2CCC(c3nc4ccccc4[nH]3)CC2)cc1
→ 2.15, 2.3
CNC(=O)c1sc(-c2cccs2)nc1C
→ 0.63, 0.8
O=C(COC(=O)CCC1CCCC1)Nc1cccc(S(=O)(=O)N2CCOCC2)c1
→ 2.54, -0.49
FC(F)Oc1ccc(-c2csc(=Nc3cccnc3)n2CC2CCCO2)cc1 (configuration not stated)
→ 0.23, 0.66
O=C(Nc1nccs1)c1cn2ccccc2n1
→ 1.21, -0.66

(more compounds)
Second line of a record – KCNQ2 enhance, KCNQ2 enhance baseline
Cc1nc2ccccc2n1C(=O)c1ccccc1[N+](=O)[O-]
→ 0.1, -0.06
CCCCn1c(NC(=S)Nc2ccccc2)nc2ccccc21
→ 2.59, -1.66
COC(=O)C1=C(N)Oc2cc(C)n(CC3CCCO3)c(=O)c2C1c1ccccc1 (configuration not stated)
→ 1.13, 0.41
CCOC(=O)CC1C(=O)NCCN1S(=O)(=O)c1ccc(C)cc1 (configuration not stated)
→ 1.1, 0.03
COC(=O)c1cc2sc(Cl)cc2n1CC(=O)Nc1ccc(OC)c(OC)c1OC
→ 0.78, 0.56
CCOC(=O)N1CCN(C(=O)c2cc(COc3cccc(C(C)=O)c3)on2)CC1
→ 0.88, 0.24
COc1ccc(NC(=O)CSCC(=O)N(C)CCOc2ccc(Cl)cc2)cc1
→ 0.28, -0.82
O=C(NCCCN1CCCC1=O)c1cc2c(s1)CCCCC2
→ 0.16, 1.36
CCC(=O)Nc1cccc(C(=O)/C=C/c2cccs2)c1
→ 0.06, -2.79
CCOC(=O)Cc1c(C)nc2c(-c3ccc(Cl)cc3)c[nH]n2c1=O
→ 1.27, -0.63
Cc1ccc(N(CCC(=O)Nc2nnc(C3CC3)s2)S(=O)(=O)c2ccccc2)cc1
→ 0.85, -0.16
Cc1nnc(NC(=O)CCC(=O)N2CCC(C)CC2)s1
→ 0.79, 0.25
N#C/C(=C/c1ccc(OCc2ccc(C(=O)O)cc2)c(Br)c1)c1cccc(F)c1
→ 2.85, -0.79
CSc1nc(N)c(C#N)c(-c2ccccc2Cl)c1C#N
→ 0.25, 0.09
COc1ccc(NC(=O)Nc2ccc(N(C)C)cc2)cc1
→ 0.98, 0.33
O=C(O)C1CCC(=O)N1C1CCCC1 (configuration not stated)
→ 1.07, -1.71
CCCOP(=O)(c1ccc(N(C)C)cc1)C(O)c1cccnc1 (configuration not stated)
→ 1.37, 0.09
Cc1ccc(CNC(=O)CCC(=O)Nc2nnc(C(C)C)s2)cc1
→ 0.4, 0.75
CCOC(=O)C1=C(CSCc2ccccc2)NC(=O)NC1c1cc(C)ccc1C (configuration not stated)
→ 0.87, -2.73
NC(=O)CSc1nnc(-c2ccc(S(=O)(=O)N3CCOCC3)cc2)n1CC1CCCO1 (configuration not stated)
→ 0.86, 0.32

Continued (4 carried over from the part before).
Second line of a record – KCNQ2 enhance, KCNQ2 enhance baseline
CCCOP(=O)(c1ccc(N(C)C)cc1)C(O)c1cccnc1 (configuration not stated)
→ 1.37, 0.09
Cc1ccc(CNC(=O)CCC(=O)Nc2nnc(C(C)C)s2)cc1
→ 0.4, 0.75
CCOC(=O)C1=C(CSCc2ccccc2)NC(=O)NC1c1cc(C)ccc1C (configuration not stated)
→ 0.87, -2.73
NC(=O)CSc1nnc(-c2ccc(S(=O)(=O)N3CCOCC3)cc2)n1CC1CCCO1 (configuration not stated)
→ 0.86, 0.32
CCN=C1SC(CC(=O)Nc2sc3c(c2C#N)CCCC3)C(=O)N1CC (configuration not stated)
→ 0.92, -0.06
Cc1ccccc1NC1=C(Cl)C(=O)OC1OC(=O)c1ccco1 (configuration not stated)
→ 3.56, -1.07
Cc1nnc(NC(=O)c2csc3c2CCC(C)C3)s1 (configuration not stated)
→ 1.4, -0.45
CCOc1ccc(NC(=O)CN(C)C(=O)c2cc(C)oc2C)cc1OCC
→ 0.38, 0
COc1ccc(OC)c(NC(=O)CSc2ncccn2)c1
→ 0.42, 0.74

An excerpt, so the mix of outcomes need not match the whole.
